# Screening data as filed in PubChem BioAssay.
# VACV mCherry inh – qHTS for Stage-Specific Inhibitors of Vaccinia Orthopoxvirus: mCherry Reporter Primary qHTS | Potency, µM (series often up to 36.5 µM), for inactives: top-dose activity change, negative = inhibition, most hits filed as inhibitors | actives 0.63% (n = 310,000) | Vaccinia virus mCherry reporter infection, fluorescence; about a quarter of the inactives have no number; active = well fitted inhibition curve with a large enough effect; inconclusive = small, poorly fitted or top-dose-only effect; inactive = no such curve, though single readings can be large or run the other way; tested in A549 cells; further: nearly all actives have a fitted effect of over 35% in size; inactives centre near -10
# Vaccinia Venus – qHTS for Stage-Specific Inhibitors of Vaccinia Orthopoxvirus: Venus Reporter Primary qHTS; Vaccinia virus Venus reporter expression, fluorescence; Potency, µM (titrated, usually from 36.5 µM), for the others: at the highest dose activity change, negative = inhibition, most hits filed as inhibitors; actives 0.46% (n = 330,000); active means well fitted inhibition curve with a large enough effect; inconclusive means small, poorly fitted or top-dose-only effect; inactive means no such curve, though single readings can be large or run the other way; tested in A549 cells; further: nearly all actives have a fitted effect of over 30% in size; inactives centre near -10
# Numbers without * were called inactive; i = inactive; ? = inconclusive; / = not tested or not shown; [ ] = another dose, or the depositor's remark. On the % scale 0 is the no-effect control and ±100 the full control effect; potency means the concentration at half of the fitted maximal effect.
mol	VACV mCherry inh	Vaccinia Venus
Cc1nc(C)c(C(=O)N/N=C/c2ccco2)s1	-5.4%	-1.8%
COc1ccc(CC(=O)Nc2nc(C)cs2)cc1	-14.2%	-1.6%
Cc1ccc(NC(=O)C[n+]2cc(-c3ccccc3)n3c2CCC3)c(C)c1	14.2%	0.0%
C/C(=N\N1CCN(c2ccccc2)CC1)c1ccco1	-8.2%	-4.4%
Cc1cccc(NC(=S)NN2CCN(C)CC2)c1	/	-8.2%
Cc1ccc(Cc2c(C)[nH]c(=S)[nH]c2=O)cc1	i	-21.9%
Cc1ccc(NC(=O)c2cc(S(=O)(=O)NC3CCCCCC3)ccc2F)cc1F	-25.0%	-24.9%
N#Cc1c(NC(=O)CSc2ncnc3sccc23)oc(-c2ccco2)c1-c1ccco1	-17.4%	-3.3%
N[C@@H](CO)c1nnc([C@H](CCC(=O)O)NC(=O)C2CCNCC2)o1	i	-7.0%
O=S(=O)(c1cccs1)N1CN(C2CCCC2)c2nc3ccccc3nc21	-10.9%	-6.7%
CCc1ccc(NC(=O)Cn2c(=O)n(CCCCC(=O)NCCc3ccccc3)c(=O)c3ccccc32)cc1	-14.6%	-15.5%
S=C(N/N=C1\C2CN3CCN(C2)CC1(c1ccccc1)C3)Nc1ccccc1	-20.8%	-6.2%
CS(=O)(=O)N(Cc1ccccc1)c1ccc(C(=O)NN=C2CCCCCC2)cc1	i	-13.1%
CCc1ccc(-c2nn(CC(=O)NC3CCCCC3)c3c2cnc2ccc(OC)cc23)cc1	-12.8%	-14.6%
COc1ccc(-n2ccnc2SCC(=O)Nc2ccc(OC)cc2OC)cc1	/	4.8%
NNC(=O)c1cc(C2CC2)nc2ccc(Br)cc12	-28.9%	-17.3%
COc1ccc(CCN2C(=O)CC(C(N)=O)SC2=Nc2ccc(F)cc2)cc1OC (configuration not stated)	-19.0%	-17.9%
COc1ccc(C2C3=C(NCCN=C3c3ccccc3)C(=O)N2c2ccccc2)c(OC)c1 (configuration not stated)	i	-10.8%
CC1=C(C(=O)Nc2ccc(C)cc2C)C(c2cccc(Cl)c2)n2nc(C(=O)OC(C)C)nc2N1 (configuration not stated)	-2.7%	-5.0%
CC(C)=CCc1c(O)cc2c(c1O)C(=O)CC(c1ccccc1)O2 (configuration not stated)	52.4%[activator]	6.6%
O=C(O)CCN(Cc1ccccc1)S(=O)(=O)c1ccc(Cl)cc1F	-0.9%	-21.7%
COc1ccc(S(=O)(=O)N(C)C[C@@H]2OCc3cnnn3CCCC(=O)N([C@H](C)CO)C[C@H]2C)cc1	-4.0%	-4.1%
N=C1/C(=C\c2ccc(OC(=O)c3ccco3)cc2)C(=O)N=C2SC=NN12	-29.0%	-8.7%
COc1ccc(CNC(=O)CN(Cc2ccccc2Cl)C(=O)c2csnn2)cc1	-8.9%	0.3%
O=C(c1cnn2c1NC(=C1CC1)C=C2C(F)F)N1CCc2ccccc2C1	-18.9%	-21.9%
C=CCNC(=O)CSc1nnc(-c2cccs2)o1	/	?
O=C(Cn1cnc2ccccc2c1=O)NCC(=O)N1CCOCC1	i	-21.9%
CCOC(=O)CC(=O)CSc1nc(-c2cccnc2)cc(C)c1C#N	/	-8.6%
O=C(NCCOc1ccccc1F)c1cccc(S(=O)(=O)N2CCN(c3ccccc3)CC2)c1	-26.5%	-19.8%
O=C(CN(Cc1ccco1)C(=O)CCC(=O)Nc1ccccn1)NCc1ccccc1	1.3%	1.7%

# Pulled by compound from the list above (2):
mol	VACV mCherry inh	Vaccinia Venus
CS(=O)(=O)N(Cc1ccccc1)c1ccc(C(=O)NN=C2CCCCCC2)cc1	i	-13.1%
CC1=C(C(=O)Nc2ccc(C)cc2C)C(c2cccc(Cl)c2)n2nc(C(=O)OC(C)C)nc2N1 (configuration not stated)	-2.7%	-5.0%

# One compound at a time, from the list above:
# Shown for S=C(N/N=C1\C2CN3CCN(C2)CC1(c1ccccc1)C3)Nc1ccccc1 → VACV mCherry inh = -20.8%; Vaccinia Venus = -6.2%
# Shown for COc1ccc(CC(=O)Nc2nc(C)cs2)cc1 → VACV mCherry inh = -14.2%; Vaccinia Venus = -1.6%

# The results go on:
mol	VACV mCherry inh	Vaccinia Venus
OC(COc1ccc(CN2CCCCO2)cc1)CN1CCCCC1 (configuration not stated)	-26.3%	-12.7%
COc1cccc(-c2csc(N3CCN(C(=S)Nc4ccccc4OC)CC3)n2)c1	-13.2%	-21.5%
O=C(NNC(=O)c1ccccc1[N+](=O)[O-])c1ccccc1[N+](=O)[O-]	5.1%	-3.2%
COc1ccc(C2CC(c3ccccc3C)n3nc(N)nc3N2)cc1 (configuration not stated)	-5.9%	-3.1%
O=C(c1ccc(S(=O)(=O)Cc2ccccc2Cl)c([N+](=O)[O-])c1)N1CCOCC1	?	?
CN1CCN(c2oc(/C=C/c3ccccc3)nc2C#N)CC1	-9.3%	-12.3%
CCc1nc2ccc(C(=O)N3CCN(c4cccc(Cl)c4)CC3)cc2nc1CC	-9.7%	-4.3%
Cc1cc(C)c(OCCN2CC(C)OC(C)C2)c(Br)c1 (configuration not stated)	i	-18.3%
O=C(Nc1ccc(Cl)cc1)c1csc([C@@H]2C[C@H](O)[C@@H](CO)O2)n1	-17.9%	-29.7%
COc1cccc(-c2nnc(SCc3nc4ccccc4s3)n2C)c1	/	?
O=C(NCc1csc(-c2cccs2)n1)c1ccsc1	i	-0.4%
O=C(O)CCc1ccc(-c2cccs2)n1-c1ccc(C(=O)O)cc1	13.4%	-4.2%
CN(CC(=O)Nc1cccc2ccccc12)c1ccc(S(=O)(=O)N2CCOCC2)cn1	/	2.9%
COc1ccc(N=Cc2ccc(-c3ccccc3)o2)cc1	-9.4%	5.6%
Nc1nc(=S)c2ncn(C3CCCC3)c2[nH]1	-10.7%	3.0%
CCc1nc2c(OCc3ccc(C(=O)OC)cc3)cccn2c1N(C)C(=O)c1ccc(OC)cc1	13.0%	-9.6%
O=C(Nc1ccc(C(=O)N2CCCCC2)cc1)c1ccccc1Cl	-0.2%	-10.5%
O=C(NCc1ccc2c(c1)OCO2)c1c(F)c(F)c(F)c(F)c1F	?	?
COc1ccc(/C=C2\SC(=O)N(CCNC(=O)C3CC4C=CC3C4)C2=O)cc1 (configuration not stated)	-29.5%	-29.8%
CN(C(=O)c1cccc(NC(=O)C2CCN(C(=O)OC(C)(C)C)CC2)c1)C1CCC1	-12.0%	-28.5%
O=C(CSc1nncn1-c1ccccc1)N1CCCC1	i	-6.7%
Cc1c(C(=O)C(C)C)n(C)c2ccccc12	/	-4.7%
CCN1CCN(c2nc3c(C)cccn3c(=O)c2/C=C(\C#N)C(=O)NC)CC1	-11.8%	-13.9%
Cc1ccccc1C(=O)Nc1cccc(-c2cn3cccnc3n2)c1	-2.9%	-5.4%
Cc1ccc(CN2CCC2(C)C(=O)NC2CCc3ccccc32)cc1 (configuration not stated)	29.5%	0.1%
O=C(Cn1c(=O)ccc2cc(S(=O)(=O)N3CCCC3)ccc21)Nc1ccc(Cl)cc1	13.3%	9.1%
N/C(Cc1ccc(Cl)cc1)=N\OC(=O)c1ccc2ccccc2c1	-12.1%	-5.0%
COc1ccc(Cc2[nH]n3c(=O)c(Cl)c(C)nc3c2-c2ccccc2)cc1	i	-8.6%
CCCNC(=O)c1ccc(N2CCC3(CC2)CC(c2ccccc2)=NO3)c(NC(=O)c2cccc(C)c2)c1	i	?
O=C(NCCc1ccccc1)c1ccc(Br)o1	9.8%	8.9%
CCCCOC(=O)c1ccc(NC(=O)/C(C#N)=C/c2ccc(-c3ccccc3)o2)cc1	-12.1%	-10.6%
O=C(O)/C=C/c1cccc(OCc2ccccc2)c1	-6.7%	4.2%
COCCN(C(=O)COC(=O)CCSc1ccc(F)cc1)c1c(N)n(Cc2ccccc2)c(=O)[nH]c1=O	-26.9%	-18.9%
Cc1ccccc1N1CCN(C2CCCN(C(=O)c3ccnn3C)C2)CC1 (configuration not stated)	i	-15.7%
O=C(/C=C/c1ccc(Cl)c([N+](=O)[O-])c1)c1ccc(O)cc1	i	-0.8%
Cc1cc2c(NCCc3ccccc3)ncnc2s1	-13.8%	-4.5%
Cc1cc(C(=O)OCC(=O)N2CC(C)CC(C)C2)c(C)o1 (configuration not stated)	-1.6%	9.6%
COc1cccc(NC(=O)c2ccncc2)c1	-5.8%	10.2%
O=C(CSc1cccc[n+]1[O-])Nc1cccc(S(=O)(=O)NC2=NCCCCC2)c1	i	-0.8%
CC(=O)N1c2ccc(S(=O)(=O)N3CCCC(C(=O)Nc4ccc(C)cc4C)C3)cc2CC1C (configuration not stated)	-15.6%	-24.7%
COc1cccc2sc(N(Cc3cccnc3)C(=O)COc3ccccc3)nc12	-11.2%	-12.5%
Cc1ccccc1-c1noc(-c2ccc(NC3CCCC3)c([N+](=O)[O-])c2)n1	1.2%	-10.2%
Nc1ncnc2c1CN(Cc1ccccc1)CC2	-1.2%	-4.0%
Cc1c(N2C(=O)/C(=C/c3ccccc3)SC2=S)c(=O)n(-c2ccccc2)n1C	?	-27.4%
Cc1cccc(NC(=O)CN2C(=O)CNC2=O)c1	-16.4%	-4.9%
CCOC(=O)Cc1csc(NC(=O)CN(C)S(=O)(=O)c2ccc3c(c2)CCC(=O)N3)n1	-28.4%	-1.9%
C=CCn1c(C(C)n2c(-c3cnccn3)nc3ccccc32)nc2ccccc21 (configuration not stated)	-1.1%	-15.4%
CC(C)(C)NC(=O)CSc1nc(N)c(-c2ccccc2)c(=O)[nH]1	i	-1.3%
O=C(CN1C(=O)c2ccccc2C1=O)NCc1ccccn1	-10.1%	-6.9%
CC1(C(=O)NS(=O)(=O)c2ccc(Cl)cc2)CCN1C(=O)C1(c2ccc(Cl)cc2)CCC1 (configuration not stated)	-12.6%	-0.4%
O=C(O)CC(NC(=O)C(F)(F)F)c1ccc2c(c1)OCO2 (configuration not stated)	7.2%	-7.4%
CCOC(=O)c1c(C)oc2nc(C)nc(NCCc3ccc(SC)cc3)c12	i	-14.0%
CC(C(=O)Nc1ncc([N+](=O)[O-])s1)N1C(=O)c2ccccc2S1(=O)=O (configuration not stated)	-6.9%	-6.4%
NS(=O)(=O)c1ccc(N/N=C/c2ccccc2Br)cc1	-4.7%	-5.5%
CC(=O)c1ccc(NC(=O)C(Cc2ccccc2)n2cccc2)cc1 (configuration not stated)	-5.1%	6.5%
CCc1ccc(NC(=O)COc2cccc(-n3cnnn3)c2)cc1	-6.2%	6.2%
CCC(C)[C@H](NC(=O)[C@H](Cc1ccccc1)n1c(=O)[nH]c2ccccc2c1=O)C(=O)NCC1CCC(C(=O)O)CC1 (some centres not stated)	7.2%	4.8%
CS(=O)(=O)Nc1ccc2c(c1)[C@H]1C[C@H](CC(=O)NCc3ccccc3)O[C@H](CO)[C@H]1O2	i	-4.6%
Cc1ccc(S(=O)(=O)NCc2n[nH]c(=S)n2C)cc1	-7.2%	-5.4%
COc1cccc2cc(C(=O)N(C)C3CCN(C)CC3)c(=O)oc12	/	-12.4%

# Entries shown so far that have a tert-butyl group:
mol	VACV mCherry inh	Vaccinia Venus
CN(C(=O)c1cccc(NC(=O)C2CCN(C(=O)OC(C)(C)C)CC2)c1)C1CCC1	-12.0%	-28.5%
CC(C)(C)NC(=O)CSc1nc(N)c(-c2ccccc2)c(=O)[nH]1	i	-1.3%

# (listing goes on)
mol	VACV mCherry inh	Vaccinia Venus
O=C(CSCC(=O)N1CCN(c2ccccc2)CC1)Nc1nc(-c2ccc(Cl)s2)cs1	?	?
COC(=O)c1cc2oc3ccccc3c2n1Cc1nc(-c2ccccc2C)oc1C	-3.9%	-0.3%
O=C(Cc1ccccc1[N+](=O)[O-])NCC1(c2cccc3c2OCO3)OCCO1	-1.8%	-10.6%
COc1ccc(/C=N/n2c(SC)nnc(C(C)(C)C)c2=O)cc1	/	-11.6%
O=C(CSc1nnc(SCc2ccccc2Cl)s1)N/N=C/c1c[nH]c2ccccc12	-16.4%	-13.1%
COCCCNC(=O)/C(C#N)=c1\s/c(=C\c2ccccc2OC(F)F)c(=O)n1CCCOC	i	0.5%
CCOCCCn1c(=N)c(C(=O)NC(C)c2ccccc2)cc2c(=O)n3cccc(C)c3nc21 (configuration not stated)	-12.3%	-19.9%
O=C(Cn1nnc(-c2ccc(Cl)cc2)n1)NC1CCN(Cc2ccccc2)CC1	-11.8%	-4.8%
CCOC(=O)c1cnc2c(C)cccc2c1Nc1cccc(C(=O)O)c1	-5.8%	-7.3%
COC(=O)C1NN=C(C(=O)c2ccc(Br)cc2)C1c1cccc(Br)c1 (configuration not stated)	-6.4%	-12.7%
OCCCc1nc2ccccc2[nH]1	i	-7.7%
CCc1ccc2nc(N(CCN(C)C)C(=O)c3ccc4ccccc4c3)sc2c1	i[7.34 µM]	0.0%[7.34 µM]
CC1(C(=O)NS(=O)(=O)Cc2cccc(Cl)c2)CCN1C(=O)CC1CCCC1 (configuration not stated)	7.7%	8.6%
Cc1cc(Cl)ccc1OC(C)C(=O)NN=C1CCCCCC1 (configuration not stated)	-0.1%	-2.9%
CCn1c(SCC(=O)c2ccccc2)nc2c(c1=O)SC(C)C2 (configuration not stated)	-21.7%	-18.0%

# Compounds as they come. About 0.87% of those tested had a hit in this group.
